GIV Gai3 FP: inhibitors of GIV peptide binding to Galpha-i3, primary screen, biochemical, fluorescence polarization, FITC-GIV GBA peptide, rat Galphai3; Guanine nucleotide-binding protein G(i) subunit alpha-3 (Rattus norvegicus), P08753; 90 min; stronger effect = lower value; scaled: aluminum fluoride 0%, vehicle 100%; percent of control (FP), % (concentration not given with the values); 210,000 compounds, 0.42% hits;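 active = replicate mean at 85% of control or lower, very high polarization wells dropped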;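 note: wells of about 15 µL received 100 nL stock; the first replicate is given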
Target sequence (P08753 whole entry, looked up): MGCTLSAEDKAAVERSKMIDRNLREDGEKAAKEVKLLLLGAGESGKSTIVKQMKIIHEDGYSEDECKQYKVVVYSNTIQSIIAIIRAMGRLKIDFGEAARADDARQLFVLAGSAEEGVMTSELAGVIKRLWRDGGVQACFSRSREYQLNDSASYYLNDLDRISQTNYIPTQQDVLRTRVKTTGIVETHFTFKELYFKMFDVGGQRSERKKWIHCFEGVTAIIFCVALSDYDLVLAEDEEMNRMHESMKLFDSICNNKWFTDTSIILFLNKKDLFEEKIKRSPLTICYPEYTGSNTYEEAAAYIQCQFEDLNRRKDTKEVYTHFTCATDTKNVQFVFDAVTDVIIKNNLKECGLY
HCMV NEC inh: inhibitors of HCMV UL50-UL53 interaction, biochemical, HTRF. normalized percent inhibition. AID 1918969, 2023. 190,000 compounds, 0.15% hits. HCMV UL50-UL53 nuclear egress complex (human cytomegalovirus). inhibition, % (concentration not given with the values);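 active = both replicates at 50% or more, plus weaker picks with an unusually low signal ratio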;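 note: stock transfer was 100 nL into about 20 µL; 0% = negative control wells and 100% = wells with untagged competitor protein; inactives centre near -12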
Sa growth inh: S. aureus growth inhibition at 42 and 30 °C, primary screen, LtaS inhibitor project, RN4220, two temperatures; 170,000 compounds, 0.53% hits; AID 720641, 2013; relative growth, % (concentration not given with the values); OD600, 20 h, 42 °C; stronger effect = lower value;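 active = growth at 42 °C up to 50% and 20 or more points under that at 30 °C, or under 10% at both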;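 note: 300 nL library stock went into each well; scaled to the means of positive and negative controls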
Sa growth inh second temp: second read-out of Sa growth inh, no call of its own (marks repeat the call); relative growth, %; measured here: growth at 30 °C;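 optical density after 20 h as mean of two plates; 100% = untreated growth and lower means inhibition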
* = called active by the depositor; / = not tested or not shown; & = joins results of further samples.

compound	GIV Gai3 FP	HCMV NEC inh	Sa growth inh	Sa growth inh second temp
COc1cccc(-c2cc3nc(-c4ccccc4)cc(=O)n3[nH]2)c1	108	5	102	90
O=C1C(=O)c2ccccc2C(O)=C1c1ccc(Cl)cc1	95	-266	80	106
CCOC(=O)c1c(C)noc1-c1ccco1	104	-20	92	82
CN(C)C(=O)c1ccc2c(c1)N(CC(=O)N1CCCCC1)C(=O)CO2	98	-17	/	/
CC(=O)N(Cc1ccccc1)Cc1cc2ccccc2[nH]c1=O	94	-15	91	83
CCc1ccc(S(=O)(=O)Nc2ccc(-c3ccc(N4CCCC4)nn3)cc2)cc1	105	/	91	86
O=C(NCCCN1CCOCC1)c1cc(-c2ccco2)nc2ccccc12	/	-65	102	70
CCN(C(=O)/C=C/c1ccccc1)c1nnc(Cn2nnc3ccccc32)s1	103	-21	116	89
N=c1ccccn1CC(O)c1ccccc1 (stereo unspecified)	108	-28	82	86
COc1ccc(/C=N/n2c(=O)c(C(C)(C)C)nn3cnnc23)c(OC)c1	/	-10	105	79
CCCNC(=O)C1CC(c2cccc(OC)c2)=NO1 (stereo unspecified)	106	-16	106	88
CCN(CC)C(=O)/C(=C\c1ccc(OC)c(OC)c1)n1ccccc1=O	103	14	85	96
CN(Cc1nc2ccccc2c(=O)[nH]1)C(C(=O)NC(N)=O)c1ccccc1 (stereo unspecified)	/	-13	86	90
O=C(NCc1ccc2c(c1)OCO2)c1nnc(-c2ccccc2)o1	103	/	114	85
Cc1cccc(NC(=O)Cn2c(=O)n(CC3CCC(C(=O)NCCc4ccccc4)CC3)c(=O)c3ccccc32)c1 (stereo unspecified)	104	-6	105	94
COc1c(N)c2ccccc2[nH]c1=O	102	-4	101	85
COc1cc2c(cc1O)CC[C@@H]1[C@@H]2CC[C@]2(C)[C@@H](O)CC[C@@H]12	99	1&4	/	/
COc1ccccc1CNC(=O)CC(C)CC1=NS(=O)(=O)c2ccccc2N1 (stereo unspecified)	98	-30	/	/
c1ccc(CN2CN(C3CCCCC3)Cn3c2nc2ccccc23)cc1	/	-21	104	88
Cc1nc(Oc2cccnc2)c2c3c(sc2n1)CCCC3	108	-16	/	/
O=C(Nc1cccc(C(F)(F)F)c1)c1c(Cl)nc2sccn12	/	-20	78	86
CCCCN(CC)C(=O)Cn1cnc2onc(-c3ccc(F)cc3)c2c1=O	105	-32	102	86
Cc1ccc(S(=O)(=O)NCC(=O)N2CCC(C)CC2)cc1	105	/	120	92
CN1CCN(CCNC(=O)c2cc3n(n2)CCCN(Cc2ccc(F)cc2)C3=O)CC1	101	-25	/	/
CN(C)S(=O)(=O)c1cccc(CSc2ncnc3c2cnn3-c2ccccc2)c1	/	-14	78	93
Nc1ccc(C2CCCc3nonc32)c2nonc12 (stereo unspecified)	123	-36	98	100
Cc1ccc(CCNC(=O)C2CCC(Cn3c(=O)[nH]c4ccsc4c3=O)CC2)cc1 (stereo unspecified)	98	/	97	91
O=C(O)C1C2C=CC3(CN(c4ccc(Cl)c(F)c4)C(=O)C13)O2 (stereo unspecified)	/	5	101	92
CCCNC(=O)COc1ccc2ccc(=O)oc2c1	/	-22	96	96
COc1cc(CNC(=O)c2cc(-c3ccccc3)n[nH]2)cc(OC)c1OC	107	/	86	86
COC(=O)C(C)Sc1nnc2n1CCN2c1ccc(OC)cc1 (stereo unspecified)	102	-38	/	/
CC1CC(C)CN(S(=O)(=O)c2cccc(C(=O)OCCN3CCCC3=O)c2)C1 (stereo unspecified)	/	-14	105	99
COc1cc(C)c(CN2CCN(C(=O)c3cc(S(=O)(=O)N(C)C)ccc3Cl)CC2)cc1OC	/	-31	115	86
O=C1C(O)=C(c2ccccc2)C(c2cccc(Br)c2)N1Cc1ccc2c(c1)OCO2 (stereo unspecified)	108	7	/	/
NS(=O)(=O)c1ccc(NC(=O)COC(=O)c2cc3ccccc3o2)cc1	105	-17	98	87
CCc1nc2cccnc2n1-c1ccc(CC(=O)NCCN2CCOCC2)cc1	103	-10	89	97
O=C(CSc1nnc2ccccn12)N1CCc2ccccc2C1	/	-22	101	84
COc1ccc(Br)c(C2CC(=O)Nc3n[nH]c(C)c32)c1 (stereo unspecified)	100	-23	/	/
COc1ccc(-c2cc3nc(C)c(CCC(=O)N4CCN(c5cccc(Cl)c5)CC4)c(C)n3n2)c(OC)c1	108	-21	107	88
CCC1C=CCC2C(=O)N(CC(=O)NCCC3=CCCCC3)C(=O)C12 (stereo unspecified)	98	5	104	73
Cc1cc(C)cc(NC(=O)C(Sc2nnc(C)n2C2CC2)c2ccccc2)c1 (stereo unspecified)	/	-31	88	86
O=C(COC(=O)c1ccc(F)c(S(=O)(=O)N2CCOCC2)c1)NCc1ccc2c(c1)OCO2	/	-11	96	83
CCOC(=O)c1c(C)c(C#N)c(NC(=O)c2ccccc2)n1-c1ccccc1	103	-40	99	82
COc1cccc2sc(N3CCc4ccccc4C3)nc12	101	/	105	84
O=C(CSc1ccccc1)N1CCN(c2nc3cc(Br)ccc3n3cccc23)CC1	98	10	/	/
CN1c2cc(Cl)ccc2-c2nc(SCC(=O)NC3CCCCC3)ncc2S1(=O)=O	106	67*	/	/
OC(Cn1ccc2ccccc21)Cn1c(Cc2ccccc2)nc2ccccc21 (stereo unspecified)	99	-7	102	93
COc1ccccc1C(=O)Nc1ccc2oc(-c3ccc4ccccc4c3)nc2c1	107	/	97	67
CCOC(=O)CC(NC(=O)Cn1nnc(-c2ccccc2F)n1)c1ccccc1Cl (stereo unspecified)	99	-5	82	98
Cc1ccccc1NC(=O)c1cccc2c(=O)c3c([nH]c12)CCCC3	106	-3	112	90

Next entries follow:
compound	GIV Gai3 FP	HCMV NEC inh	Sa growth inh	Sa growth inh second temp
O=C(Cc1ccccc1)N1CCOCC1	103	-7	96	86
N#CC1=C(N)OC2=C(CCc3ccccc32)C1c1ccccc1 (stereo unspecified)	100	-23	95	69
O=S(=O)(c1ccccc1Cl)N1CCC(CN2CCCCC2)CC1	103	-30	/	/
CCCCNC(=O)c1ccc(C#N)cc1	/	10	103	92
Cc1cc(NC(=O)/C=C\c2ccccc2)nc2c1c(=O)oc1ccccc12	104	/	85	63
CC(=O)Nc1ccc(Cn2cnc(-c3nc(-c4ccc(Cl)cc4)no3)c2)cc1	104	-14	/	/
CCOC(=O)c1cccc(NC(=O)C2=Cc3ccc(C)cc3OC=C2)c1	101	-18	/	/
Cc1cc(C)c(C#N)c(SCC(=O)N2c3ccccc3NC(=O)C2(C)C)n1	/	-26	97	98
NC(=O)C1CCN(C(=O)CC2(CC(=O)O)CCCCC2)CC1	/	10	101	100
CC(=O)n1c(=O)oc2ccc(C)cc21	102	-1	119	92
CN(C(=O)c1cc2nc(-c3ccco3)cc(C(F)(F)F)n2n1)c1ccc(OC(F)(F)F)cc1	/	-11	85	86
COc1ccc(-c2noc(CC(=O)N(C)c3cc(C)ccc3C)n2)cc1	103	4	99	96
Cc1nc2ccccc2n1C(C)c1ccccc1 (stereo unspecified)	110	-23	144	90
CC(=O)Nc1ccc(Cl)cc1-c1nc2ccc(C)cc2[nH]c1=O	101	-30	104	76
CCCC1CCC(C(=O)Nn2cnc3ccccc3c2=O)CC1 (stereo unspecified)	105	-18	96	95
CC(=O)Nc1cc(-c2ccc(Cl)cc2)[nH]n1	103	5	84	54
CC(=O)c1ccc(S(=O)(=O)N2CCn3cccc3C2c2ccccc2F)cc1 (stereo unspecified)	101	/	98	100
O/N=C/c1ccc(OCc2ccccc2)cc1	107	0	101	77
O=C(Nc1ccc(Br)cc1)N1CCN(c2ccc(-c3noc(C4CC4)n3)cc2)CC1	102	-20	/	/
CC(=O)N1CCc2c([nH]c3ccccc23)C1C(F)(F)F (stereo unspecified)	100	0	113	84
CCC(C)NC(=O)c1ccc(/C=C2/Sc3ccccc3NC2=O)cc1 (stereo unspecified)	102	/	97	89
Cc1ccc(-c2cc(N3CCC(C(N)=O)CC3)nc(SCc3ccccc3)n2)cc1	105	-9	/	/
COc1ccc(C2c3ccsc3CCN2C(=O)C(C)(C)C)cc1 (stereo unspecified)	102	2	102	98
Cc1cc(Nc2cc(Cl)ccc2C)n2nc(-c3ccccc3)nc2n1	106	-2	107	89
O=C(NCc1ccc(F)cc1)C1CCCN(c2ncnc3onc(-c4ccc(F)cc4)c23)C1 (stereo unspecified)	108	/	108	102
C(=N\Nc1nc2ccccc2s1)/c1ccc2ncccc2c1	/	-26	106	83
COc1cc(/C=c2/sc3nc4cc(C)c(C)cc4n3c2=O)ccc1OCc1ccc(C)cc1	104	-24	/	/
NNc1cc(C(F)(F)F)nc2ccccc12	105	-33	83	53
c1ccc(Cn2ncc3c(N4CCCCC4)ncnc32)cc1	102	-9	122	94
Cc1ccc2ccc3cc(C(=O)NC4CCCCC4)nc3c2[nH]1	101	3	/	/
CCC(C)NC(=O)Cn1c(=O)n(CCCCCC(=O)Nc2ccccc2)c(=O)c2sccc21 (stereo unspecified)	106	-5	98	90
CC(CC(=O)N1CCN(C(=O)c2ccccc2)CC1)c1ccccc1 (stereo unspecified)	/	-26	81	84
COc1ccc(N2CCN(CCCNC(=O)C3=C(C)C(=O)OC34CCCCC4)CC2)cc1	110	9	98	96
Cc1ccc(N2C(=O)CC(Sc3nc(C)c(C)c(C)c3C#N)C2=O)cc1 (stereo unspecified)	101	-9	/	/
COc1cccc(CNC(=O)c2ccc3c(c2)sc2nc(-c4ccccc4)cn23)c1OC	104	/	108	70
N#Cc1c(-c2ccccc2)cc(-c2cccs2)nc1SCC(O)CN1CCOCC1 (stereo unspecified)	103	-14	88	81
O=C(CSc1nc2ccccc2[nH]1)NC1CCS(=O)(=O)C1 (stereo unspecified)	/	-22	103	94
COc1ccc(CNCCN2CCOCC2)cc1	100	-12	90	95
COC(=O)c1cc(-c2ccccc2)sc1NC(=O)C1CCCO1 (stereo unspecified)	/	-10	96	85
Cc1ccc(-c2nc(SCC(=O)NCC3CCCO3)c(-c3ccccc3)[nH]2)cc1 (stereo unspecified)	99	-17	/	/
CCC1=C(c2ccc(C)cc2)S(=O)(=O)N=C1N1CCC(C(=O)N2CCCCC2)CC1	101	/	79	93
CCOC(=O)c1c(C)[nH]c(C)c1S(=O)(=O)N1CCC(C(=O)Nc2cccnc2)CC1	99	-17	/	/
COC(=O)c1c(C)[nH]c(C(=O)O)c1C	/	-17	115	94
Cc1oc2ncnc(Oc3ccc(Br)cc3F)c2c1C	97	-33	/	/
CCOC(=O)C1=NNCC1C(=O)OCC (stereo unspecified)	107	/	107	93
CC(C)c1c(O)c2ccccc2[nH]c1=O	104	-34	138	104
COc1ccc(NC(=O)c2cc(C)nc3c2c(=O)n(C)c(=O)n3C)cc1	105	-4	/	/
CCOC(=O)C(C)Sc1nnc(Cn2c(=O)sc3ccccc32)n1-c1cccc(Cl)c1 (stereo unspecified)	103	/	111	96
Cc1ccc(CNC(=O)CCc2c(C)nn(-c3ccc(N4CCCC4)nn3)c2C)cc1	105	/	103	99
Cc1ccc(NC(=O)c2sc(=S)n3c2[nH]c(=O)c2cc(Cl)ccc23)c(C)c1	102	2	/	/

Entries shown so far that contain two or more sulfur atoms (6):
compound	GIV Gai3 FP	HCMV NEC inh	Sa growth inh	Sa growth inh second temp
CN(C)S(=O)(=O)c1cccc(CSc2ncnc3c2cnn3-c2ccccc2)c1	/	-14	78	93
CN1c2cc(Cl)ccc2-c2nc(SCC(=O)NC3CCCCC3)ncc2S1(=O)=O	106	67*	/	/
N#Cc1c(-c2ccccc2)cc(-c2cccs2)nc1SCC(O)CN1CCOCC1 (stereo unspecified)	103	-14	88	81
O=C(CSc1nc2ccccc2[nH]1)NC1CCS(=O)(=O)C1 (stereo unspecified)	/	-22	103	94
CCOC(=O)C(C)Sc1nnc(Cn2c(=O)sc3ccccc32)n1-c1cccc(Cl)c1 (stereo unspecified)	103	/	111	96
Cc1ccc(NC(=O)c2sc(=S)n3c2[nH]c(=O)c2cc(Cl)ccc23)c(C)c1	102	2	/	/

2 successive compounds from above:
compound	GIV Gai3 FP	HCMV NEC inh	Sa growth inh	Sa growth inh second temp
C(=N\Nc1nc2ccccc2s1)/c1ccc2ncccc2c1	/	-26	106	83
COc1cc(/C=c2/sc3nc4cc(C)c(C)cc4n3c2=O)ccc1OCc1ccc(C)cc1	104	-24	/	/

The list continues:
compound	GIV Gai3 FP	HCMV NEC inh	Sa growth inh	Sa growth inh second temp
CSc1nc(-c2ccccc2)nc(Sc2ccccn2)c1C#N	105	-45	92	92
Cc1nn(-c2ccccc2)c(Cl)c1C(=O)NCCN(C)C	/	-38	113	83
CCN(C(=O)CN1C=NS(=O)(=O)c2ccccc21)c1ccccc1	103	-45	105	89
CCCCc1cc(=O)oc2cc(C)cc(O)c12	99	-7	27	29
